E coli growth = blocks Escherichia coli growth; AID 1053175; OD600 absorbance (no concentration beside the values); OD600, 23 h; active compounds read low; 330,000 tested, 0.21% active;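 active = OD600 absorbance below the run mean of sample wells minus 3.6 SD, in any replicate, cut at about 0.56 in these data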;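 note: stock transfer was 300 nL into about 60 µL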
UCH37 DUB inh = inhibitors of human deubiquitinating enzyme UCH37 | Q9Y5K5 | 330,000 tested, 0.33% active | inhibition, % (test concentration not listed) | purified proteasome/UCH37, Ub-AMC cleavage fluorescence;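 active = mean of two replicates above 20%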;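 note: 0% = compound-free wells with enzyme and 100% = wells lacking proteasome; stock transfer was 100 nL into about 20 µL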
Target sequence (Q9Y5K5 whole entry, looked up): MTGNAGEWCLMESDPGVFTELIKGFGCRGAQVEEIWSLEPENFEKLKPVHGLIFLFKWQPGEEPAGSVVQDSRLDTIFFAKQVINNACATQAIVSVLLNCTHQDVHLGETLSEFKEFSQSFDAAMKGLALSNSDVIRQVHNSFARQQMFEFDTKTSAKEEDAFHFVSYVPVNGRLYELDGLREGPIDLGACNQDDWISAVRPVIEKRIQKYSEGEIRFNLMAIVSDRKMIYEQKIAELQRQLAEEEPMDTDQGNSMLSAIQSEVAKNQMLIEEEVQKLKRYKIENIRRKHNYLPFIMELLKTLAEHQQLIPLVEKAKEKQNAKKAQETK
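System: Proteasome-associated human UCH37 deubiquitinase; Input: 0.15 nM proteasome in added enzyme buffer; Also added: Ub-AMC substrate from 1 µM stock; Incubation: 30 min compound-proteasome preincubation then 25 min substrate reaction, room temperature; Detection: fluorescence, ex 355 nm, em 460 nm; Read-out: % inhibition of Ub-AMC cleavage fluorescence; Benchmarks: no-proteasome and no-compound wells.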
Ecoli rRNA inh = selective bacterial rRNA inhibition in E. coli. GFP signal change (wild-type ribosome), % (concentration not given with the values). 350,000 tested, 1.6% active. AID 720706. E. coli WT GFP vs humanized-ribosome RFP mutants, fluorescence, 24 h; active compounds read low; DMSO median 0, no signal -100;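 active = significant combined selectivity score with lowered wild-type GFP, culture density cut under 30%, mutant RFP and density less affected; inactive = any of these conditions unmet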; note: one replicate is shown; some compounds called inactive have numbers as strong as hits
HNF4A DNA FP = change in binding of human HNF4 alpha to DNA; P41235; activity change, % at 10 µM; HNF4a-FITC DNA binding, fluorescence polarization, 1 h; 360,000 tested, 0.3% active; in the data active = activity change above about 30%, passing the limit was not always enough;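 note: controls were the assay level and a saturating level of protein; the project sought stronger binding though the title names inhibitors; some compounds called inactive have numbers as strong as hits; positive values seem to mean higher polarization but the record does not say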
Beta2AR agonist = agonists of human beta-2 adrenergic receptor inducing internalization; response, % (test concentration not listed); AID 504454; Am2.2-beta2AR cells, FAP receptor internalization, flow cytometry; reference of the scale not given here; 340,000 tested, 0.43% active;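 active = response above a set limit, near 3 SD of response in nonfluorescent compounds, cut at about 42% in these data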;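 note: stock transfer was 100 nL into about 11 µL; a reference agonist was the positive control; negative values mostly stem from fluorescent compounds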
ALR H2O2 inh = inhibitors of human sulfhydryl oxidase ALR. P55789. purified ALR, DTT oxidation, H2O2 HRP-luminol luminescence. inhibition, % (no concentration beside the values). 290,000 tested, 3.8% active. AID 485317;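 active = mean and each replicate at 75% or more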;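 note: stock transfer was 7.5 nL into about 7.5 µL; 0% = neutral wells and 100% = wells with inactivated enzyme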
Target sequence (P55789 whole entry, looked up): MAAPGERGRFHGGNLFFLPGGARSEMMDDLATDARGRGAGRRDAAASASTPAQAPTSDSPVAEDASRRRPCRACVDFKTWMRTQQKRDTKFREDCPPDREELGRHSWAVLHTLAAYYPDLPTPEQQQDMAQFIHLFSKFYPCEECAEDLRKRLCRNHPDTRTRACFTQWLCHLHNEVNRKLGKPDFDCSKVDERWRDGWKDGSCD
FGF22 binding = binders of recombinant human FGF22 by thermal shift; AID 651658; SYPRO orange fluorescence; percent of sucrose octasulfate shift, DMSO zero; calls only at 9.99 µM; Q9HCT0; 340,000 tested, 1.5% active;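 active = melting point raised past a set limit in the mean and every replicate; three in four hits are not shown here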
Target sequence (Q9HCT0 whole entry, looked up): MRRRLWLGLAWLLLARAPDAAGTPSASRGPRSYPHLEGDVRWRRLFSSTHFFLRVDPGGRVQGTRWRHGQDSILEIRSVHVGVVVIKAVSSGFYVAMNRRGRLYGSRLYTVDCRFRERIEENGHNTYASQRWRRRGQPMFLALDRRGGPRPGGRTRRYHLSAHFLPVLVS
Ecoli rRNA inh OD600 = further read-out of Ecoli rRNA inh, marked with its call; OD600 change, %; measured here: OD600 growth;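 optical density of the mix in the first replicate; 0 = DMSO median and -100 = no signal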
Ecoli rRNA inh RFP = second read-out of Ecoli rRNA inh, no call of its own (marks repeat the call); RFP signal change, %; measured here: RFP humanized mutant strains;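 first replicate; 0 = DMSO median and -100 = no signal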
* hit, by the source's call; i = inactive; . = no result given. A portion of the library (hit frequency here may not be typical).

E coli growth,UCH37 DUB inh,Ecoli rRNA inh,Ecoli rRNA inh OD600,Ecoli rRNA inh RFP,HNF4A DNA FP,Beta2AR agonist,ALR H2O2 inh,FGF22 binding,molecule
0.752,4.3,.,.,.,-1.1,-5.0,4.6,.,O=C(CSCc1ccccc1Cl)NN=C1CCCCCC1
0.706,7.5,20.6,14.2,3.7,0.9,-0.4,.,i,CC1=CC(c2ccccc2)=NS(=O)(=O)N1
0.668,3.8,10.9,2.2,3.7,0.8,-4.1,-1.1,i,O=C1CC(N2CCC(c3nc4ccccc4[nH]3)CC2)C(=O)N1c1cccc(F)c1 (stereo not drawn)
0.748,3.1,.,.,.,-3.4,-4.7,-26.4,.,Cn1c(CCNC(=O)c2ccc(Cl)c(Cl)c2)nnc1SCc1ccc(Cl)c(Cl)c1
0.678,5.3,18.4,19.3,7.7,-1.2,9.5,6.2,.,Cc1ccc(NS(=O)(=O)c2cccc([N+](=O)[O-])c2)nc1
0.656,-0.8,7.3,5.0,0.4,2.8,-5.3,-1.1,i,COc1ccc(NC(=O)COc2ncnc3ccccc23)cc1S(=O)(=O)N1CCOCC1
.,.,6.7,8.6,-3.2,3.1,.,.,i,CCCCCCCCN1C(=O)[C@H](CC(=O)NCc2cccc(C(F)(F)F)c2)C[C@@]2(C(=O)OC)CC(C)(C)CC=C12
0.72,0.2,3.2,5.2,-2.6,1.3,4.5,97.9*,i,Cn1cccc1C(=O)OCC(=O)N1CCN(c2ccccc2)CC1
0.707,-105.6,-30.7,-48.3,18.7,-3.8,-2.4,0.8,i,CC(=O)Nc1ncnc2c1c(-c1ccc(Cl)cc1)nn2C(C)(C)C
.,.,27.8,19.0,2.4,-3.1,.,.,i,CCCCN1C(=O)C(CC(=O)NCCCN(C)C)CC(C(=O)N(C)C)=C1C (stereo not drawn)
0.721,3.5,.,.,.,0.7,-7.0,.,.,Cc1cccc(N2CCN(Cc3nc(-c4cccc(Oc5ccccc5)c4)oc3C)CC2)n1
0.708,2.7,.,.,.,-0.9,6.2,-10.3,.,CCc1ccccc1NC(=O)CSc1nnc([C@@H]2CCCN2C(=O)OC(C)(C)C)o1
.,.,14.3,20.5,1.6,-4.1,.,.,i,CCCNC(=O)c1cc(C2CCCCN2C(=O)c2ccc(NC(C)=O)cc2)on1 (stereo not drawn)
0.666,2.8,.,.,.,2.2,9.9,-1.4,.,CCOC(=O)Cc1csc(NC(=O)COc2ccccc2OC)n1
0.74,3.9,.,.,.,3.1,7.5,-3.0,.,Nc1nc(-c2cccnc2)nn1C(=O)Cc1ccccc1
.,-4.7,4.2,2.6,0.5,1.0,-6.7,-6.6,i,CCN1C(=O)[C@@H]2[C@H](C1=O)[C@@H]1C(=O)Nc3ccccc3C(=O)N1[C@@H]2c1ccccc1
0.692,0.6,.,.,.,-0.9,4.6,-2.4,.,CN(C)S(=O)(=O)c1cccc(C(=O)Nc2cccnc2)c1
0.672,0.0,27.7,-40.1,10.8,8.2,9.3,-2.3,i,CCN(c1ccccc1)S(=O)(=O)c1ccc(C(=O)Nc2cccc(NC(C)=O)c2)cc1
.,.,8.3,-0.8,2.3,0.7,5.0,.,i,Cc1cccc(-c2ccc3c(c2)C2CC3CCN2)c1 (stereo not drawn)
0.68,2.1,.,.,.,2.2,-0.6,-4.0,.,CC(C)n1nnnc1SCC(=O)Nc1ccccc1N1CCOCC1
.,.,.,.,.,1.8,-3.2,-1.4,.,O=C(N/N=C/c1cccnc1)c1cc(C2CC2)nc2ccccc12
0.685,-14.2,-1.4,-9.2,2.3,2.2,-1.6,-3.8,.,N#Cc1c(N)nc2c(c1-c1cccnc1)CCCCC2
.,.,2.6,2.9,10.4,2.1,-3.9,.,i,c1ccc(-c2c[nH]c(-c3ccccc3)c2)cc1
0.701,2.9,.,.,.,-2.4,3.2,-0.4,.,Cc1ccc(NC(=O)CCC(=O)OCC(=O)c2ccc(Oc3ccc([N+](=O)[O-])cc3)cc2)cc1C
0.687,1.4,-0.5,6.3,2.2,-4.2,-6.2,-2.7,i,CC[C@]12c3[nH]c4ccccc4c3CCN1C(=O)C(CC(=O)NCCc1ccccn1)C[C@@H]2C(=O)N1CCN(C(=O)c2ccco2)CC1 (stereo partly drawn)
0.659,-2.5,-3.7,-3.7,1.1,0.0,-7.6,-3.6,i,CSc1ccc(CN(C)C(=O)c2cc(=O)[nH]c3ccccc23)cc1
0.72,3.8,.,.,.,0.1,10.1,-1.9,.,O=c1c2ccccc2sn1-c1ccc(S(=O)(=O)N2CCCCC2)cc1
0.654,-97.7,-1.5,6.4,-0.1,-1.5,14.0,2.4,i,COc1ccc2nc(NC(=O)c3ccccc3O)sc2c1
0.79,-0.1,.,.,.,-0.3,-0.3,-7.5,.,Cc1cc(C(=O)CSc2nnc(-c3ccco3)o2)c(C)n1-c1ccc2c(c1)OCCO2
0.724,2.2,12.8,16.8,2.4,-3.0,-2.7,41.7,i,CC(C)[C@H](NC(=O)c1ccccc1Cl)C(=O)OCc1cc(=O)n2cc(Br)ccc2n1
.,.,27.8,20.2,8.8,-3.0,.,.,i,CCOc1ccc(CCN2C(=S)N([C@@H](CC(C)C)CN3CCC[C@@H]3CN3C(=S)NC[C@@H]3CC(C)C)C[C@@H]2CC(C)C)cc1
0.678,-0.4,-38.6,-64.2,-2.7,-0.1,9.2,.,i,CCn1cc(CN2CCCC(CO)(Cc3ccc(F)cc3)C2)c2ccccc21 (stereo not drawn)
.,.,-14.6,-2.5,0.1,-1.1,7.0,-0.9,i,COc1ccc(/C(C)=N\Nc2nc(-c3ccccc3)cc(=O)[nH]2)cc1
.,6.3,6.7,10.3,0.1,-4.7,-5.7,-8.0,i,COc1ccc(NC(=O)N(C)C[C@H]2Oc3c(NC(=O)Cc4ccccc4)cccc3C(=O)N([C@H](C)CO)C[C@@H]2C)cc1
0.672,-0.9,.,.,.,0.1,3.5,67.8,.,CCCC(=O)Nc1ccc(S(=O)(=O)Nc2cc(C)nc(C)n2)cc1
0.634,0.3,5.2,11.3,-3.4,3.6,7.4,74.8,i,CC1(C)CC(=O)C(=Cc2cn(-c3ccccc3)nc2-c2ccccc2)C(=O)C1
0.687,1.4,-2.2,0.6,0.9,1.2,-3.2,-4.0,i,Cc1ccc(C)c(NS(=O)(=O)c2ccc(NC(=O)CSc3ccc(Cl)cc3)cc2)c1
0.741,-3.4,.,.,.,4.5,1.1,.,.,CCOC(=O)c1cnn(-c2ccccc2)c1NC(=O)CSc1nnc(-c2cccs2)n1CC
0.703,6.3,.,.,.,-0.5,-18.1,3.7,.,Cc1ccc2[nH]c(O)c(N=NC(=O)CCc3ccccc3)c2c1Br
0.706,-36.7,20.4,5.8,5.8,0.8,-1.0,-0.4,i,Cc1ccc(C)c(N(C(=O)c2snc(C(N)=O)c2N)C(C(=O)NCC2CCCO2)c2cccs2)c1 (stereo not drawn)
0.673,-0.8,-6.2,2.4,-3.7,0.7,-4.8,-7.9,i,O=C(Nc1ccccn1)c1ccc(S(=O)(=O)c2ccc(Cl)cc2)cc1
.,.,.,.,.,-2.5,-3.1,52.4,.,CCN(CC)c1ccc(/C=N/n2c(C)cc(C)cc2=O)cc1
.,.,-11.0,-5.3,0.9,1.0,.,.,i,CC1(C(=O)NS(=O)(=O)c2ccc3c(c2)CCO3)CCN1C(=O)C1(c2ccc(Cl)cc2)CC1 (stereo not drawn)
0.665,1.6,.,.,.,-1.5,2.2,-3.8,.,Fc1ccc(C(c2nnnn2Cc2cccs2)N2CCN(C3CCCC3)CC2)cc1 (stereo not drawn)
.,.,-14.4,-28.7,-7.0,-2.8,.,.,i,CC(C)(C)c1ccc(CC(=O)N2CCC2(C)C(=O)NCc2cccs2)cc1 (stereo not drawn)
.,.,-23.1*,-16.3*,-2.3*,2.3,-1.1,92.4*,i,S=c1[nH]nc(-c2ccncc2)n1/N=C/C=C/c1ccccc1
0.708,-0.5,6.6,8.8,2.6,-1.7,-1.5,-13.0,i,COc1cccc2cc(C(=O)NCCN3CCOCC3)oc12
0.674,6.0,20.2,14.0,0.2,-6.2,-2.5,2.9,i,CC(=O)C1=C(C)N2CCN=C2S1
0.71,-3.1,-12.9,-2.1,-1.4,-0.9,9.2,-16.6,i,Cc1cccc(NCc2ccc(O)c3ncccc23)c1
0.683,1.2,.,.,.,-0.5,-2.8,-2.6,.,COCCNC(=O)c1ccc(NC(C)=O)cc1
0.771,5.0,.,.,.,-0.3,9.8,54.6,.,c1cc(CNc2ccc3c(c2)OCCO3)ccn1
0.666,3.8,.,.,.,1.1,-2.6,42.7,i,CCCc1c(C(=O)NNc2ccc(C)cc2)cnn1-c1ccccc1
0.657,2.5,-5.5,2.1,0.6,-0.6,-3.5,-3.1,i,Cn1nc(C(F)(F)F)c(-c2ccc(Br)cc2)c1NC(=O)C1CCC1C(=O)O (stereo not drawn)
.,0.3,0.6,7.1,-1.0,8.6,14.1,-0.2,i,COC(=O)[C@@]12CCCCN1[C@H](c1ccc(-c3ccc(F)cc3)cc1)[C@@H]1C(=O)N(C)C(=O)[C@@H]12

Reformatted: 4 of the compounds above
Each structure is followed by: E coli growth, UCH37 DUB inh, Ecoli rRNA inh, Ecoli rRNA inh OD600, Ecoli rRNA inh RFP, HNF4A DNA FP, Beta2AR agonist, ALR H2O2 inh, FGF22 binding
CCCCCCCCN1C(=O)[C@H](CC(=O)NCc2cccc(C(F)(F)F)c2)C[C@@]2(C(=O)OC)CC(C)(C)CC=C12
→ ., ., 6.7, 8.6, -3.2, 3.1, ., ., i
Cn1cccc1C(=O)OCC(=O)N1CCN(c2ccccc2)CC1
→ 0.72, 0.2, 3.2, 5.2, -2.6, 1.3, 4.5, 97.9*, i
CC(=O)Nc1ncnc2c1c(-c1ccc(Cl)cc1)nn2C(C)(C)C
→ 0.707, -105.6, -30.7, -48.3, 18.7, -3.8, -2.4, 0.8, i
CCCCN1C(=O)C(CC(=O)NCCCN(C)C)CC(C(=O)N(C)C)=C1C (stereo not drawn)
→ ., ., 27.8, 19.0, 2.4, -3.1, ., ., i

Fetched one by one from the list above (2):
E coli growth,UCH37 DUB inh,Ecoli rRNA inh,Ecoli rRNA inh OD600,Ecoli rRNA inh RFP,HNF4A DNA FP,Beta2AR agonist,ALR H2O2 inh,FGF22 binding,molecule
0.634,0.3,5.2,11.3,-3.4,3.6,7.4,74.8,i,CC1(C)CC(=O)C(=Cc2cn(-c3ccccc3)nc2-c2ccccc2)C(=O)C1
0.706,-36.7,20.4,5.8,5.8,0.8,-1.0,-0.4,i,Cc1ccc(C)c(N(C(=O)c2snc(C(N)=O)c2N)C(C(=O)NCC2CCCO2)c2cccs2)c1 (stereo not drawn)

Screens as filed in PubChem.
